Screens (PubChem BioAssay)
E coli growth: E. coli growth inhibition, primary screen, OD600; Escherichia coli growth, 23 h; stronger effect = lower value; OD600 absorbance (no concentration beside the values); 330,000 tested, 0.21% active;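 active = OD600 absorbance below the run mean of sample wells minus 3.6 SD, in any replicate, cut at about 0.56 in these data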;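 also: stock transfer was 300 nL into about 60 µL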
MLL AF4-AF9 inh: inhibitors of AF4 peptide binding to AF9, primary screen, biochemical, AlphaScreen, biotin-AF4 peptide, FLAG-AF9, single point; inhibition, % at 10 µM; 350,000 tested, 0.47% active; Protein AF-9 (Homo sapiens), P42568; AID 651704, 2012;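 active = every replicate reaching a set inhibition limit, whatever the replicate mean, cut at about 25% in these data; inconclusive = mean inhibition reaches that limit but some replicates miss it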;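 also: 0% = plate neutral control median and 100% = total signal loss; the record names both 10 and 1 µM as test concentration; the first replicate is given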
Target sequence (P42568 whole entry, looked up): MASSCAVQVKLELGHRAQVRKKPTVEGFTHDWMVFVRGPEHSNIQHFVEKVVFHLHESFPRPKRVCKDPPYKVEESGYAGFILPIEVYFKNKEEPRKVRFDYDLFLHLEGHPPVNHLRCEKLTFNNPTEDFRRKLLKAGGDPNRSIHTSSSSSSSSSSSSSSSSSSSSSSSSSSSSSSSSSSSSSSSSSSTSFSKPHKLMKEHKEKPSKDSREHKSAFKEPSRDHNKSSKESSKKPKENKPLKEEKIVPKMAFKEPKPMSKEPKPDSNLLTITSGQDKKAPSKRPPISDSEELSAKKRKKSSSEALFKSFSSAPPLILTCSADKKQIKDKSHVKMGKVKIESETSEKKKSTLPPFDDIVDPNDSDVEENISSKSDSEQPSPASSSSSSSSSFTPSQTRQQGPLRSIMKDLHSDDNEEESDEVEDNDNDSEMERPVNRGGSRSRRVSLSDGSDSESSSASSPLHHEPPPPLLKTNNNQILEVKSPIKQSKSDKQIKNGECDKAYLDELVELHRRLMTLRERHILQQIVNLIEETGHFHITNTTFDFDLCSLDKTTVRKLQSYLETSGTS
UCH37 DUB inh: inhibitors of human UCH37 deubiquitinase, primary screen, biochemical, Ub-AMC cleavage, fluorescence; Ubiquitin carboxyl-terminal hydrolase isozyme L5 (Homo sapiens), Q9Y5K5; purified proteasome/UCH37; inhibition, % (test concentration not listed); 330,000 tested, 0.33% active;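 active = mean of two replicates above 20%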;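 also: 0% = compound-free wells with enzyme and 100% = wells lacking proteasome; stock transfer was 100 nL into about 20 µL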
Target sequence (Q9Y5K5 whole entry, looked up): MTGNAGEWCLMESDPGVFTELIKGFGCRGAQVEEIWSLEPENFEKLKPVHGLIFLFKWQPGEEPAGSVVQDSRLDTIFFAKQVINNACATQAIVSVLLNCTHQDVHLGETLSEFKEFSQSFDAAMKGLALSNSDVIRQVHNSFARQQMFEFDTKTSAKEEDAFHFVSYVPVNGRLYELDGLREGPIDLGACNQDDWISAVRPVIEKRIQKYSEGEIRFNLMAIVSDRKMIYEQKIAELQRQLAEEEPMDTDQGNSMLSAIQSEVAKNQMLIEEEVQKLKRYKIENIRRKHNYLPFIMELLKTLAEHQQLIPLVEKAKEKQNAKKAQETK
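system = Proteasome-associated human UCH37 deubiquitinase | amount = 0.15 nM proteasome as dispensed | medium = pH 7.4 Tris-HCl (50 mM) with ovalbumin, ATP-MgCl2, DTT | incubation = 30 min preincubation with enzyme, 25 min cleavage at room temperature | detection = AMC fluorescence 355/460 nm | read-out basis = percent inhibition | controls = no-proteasome and no-compound wells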
rRNA inh HTS: reduced GFP signal of wild-type E. coli, primary screen, bacterial rRNA inhibitor project, GFP/RFP fluorescence, OD600, single point. E. coli WT GFP vs humanized-ribosome RFP mutants, 24 h; stronger effect = lower value; DMSO median 0, no signal -100. GFP signal change (wild-type ribosome), % (no concentration beside the values). 350,000 tested, 1.6% active. AID 720706, 2013;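 active = significant combined selectivity score with lowered wild-type GFP, culture density cut under 30%, mutant RFP and density less affected; inactive = any of these conditions unmet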; also: one replicate is shown; some compounds called inactive have numbers as strong as hits
T cruzi inh: inhibitors of intracellular T. cruzi growth, primary screen, luminescence, NIH3T3 host cells | T. cruzi beta-gal in NIH3T3, 90 h | inhibition, % (concentration not given with the values) | 300,000 tested, 1.4% active;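 active = mean inhibition across valid replicates above about 55%, limit read from the data; inconclusive = mean below that limit but half or more replicates reach it; inactive = mean below it, under half of replicates reach it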;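 also: signal also drops with host cell toxicity which is not excluded here; 0% = plate median of DMSO wells and 100% = zero luminescence signal; higher percent means less beta-gal luminescence so fewer parasites; stock transfer was 50 nL into about 50 µL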
Beta cell apopt: inhibitors of cytokine-induced beta cell apoptosis, primary screen, luminescence; 300,000 tested, 0.8% active; INS-1E cytokine-induced death, ATP luminescence, 48 h; percent of positive-control rescue, neutral wells zero; protection from apoptosis, % (concentration not given with the values);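 active = all replicates at 75% or more, or half of them and the mean; inconclusive = half reach 75% but not the mean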;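 also: 0% = cytokine-treated negative control wells and 100% = positive control rescue; higher means more ATP so stronger rescue from cytokine killing; wells of about 40 µL received 100 nL stock; the first replicate is given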
A1 inh: caspase 3/7 activation in MEF A1-2A-BIM cells, primary screen, A1 inhibitor project, cell-based, luminescence, HTS; Caspase-Glo 3/7 luminescence, 3 h; percent of clofoctol response, vehicle zero; caspase activation, % (no concentration beside the values); 330,000 tested, 0.066% active; AID 2462, 2010;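 active = over half of replicate activation scores above 10%, or exactly half above 10 with the replicate mean above 10; inconclusive = replicate mean below 10 yet half the replicates above 10; inactive = over half of replicates below 10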;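 also: wells of about 30 µL received 50 nL stock; many hits fall short of the cut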
FGF22 binding: binders of human FGF22 protein, primary screen, FGF22 synaptogenesis inhibitor project, biophysical, thermal shift, single point; Fibroblast growth factor 22 (Homo sapiens), Q9HCT0; recombinant FGF22 thermal shift, SYPRO orange fluorescence; percent of sucrose octasulfate shift, DMSO zero; calls only at 9.99 µM; 340,000 tested, 1.5% active;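 active = melting point raised past a set limit in the mean and every replicate; inconclusive = no clear call; three in four hits are not shown here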
Target sequence (Q9HCT0 whole entry, looked up): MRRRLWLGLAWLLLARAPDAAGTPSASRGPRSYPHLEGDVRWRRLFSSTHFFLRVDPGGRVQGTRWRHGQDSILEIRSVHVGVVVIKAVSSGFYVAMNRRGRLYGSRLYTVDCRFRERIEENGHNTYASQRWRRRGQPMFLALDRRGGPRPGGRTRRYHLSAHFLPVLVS
rRNA inh HTS OD600: further read-out of rRNA inh HTS, marked with its call; OD600 change, %; measured here: OD600 growth;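 optical density of the mix in the first replicate; 0 = DMSO median and -100 = no signal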
rRNA inh HTS RFP: further read-out of rRNA inh HTS, marked with its call; RFP signal change, %; measured here: RFP humanized mutant strains;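 first replicate; 0 = DMSO median and -100 = no signal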
* hit, by the source's call; i = inactive; u = inconclusive; x = no result given.

SMILES	E coli growth	MLL AF4-AF9 inh	UCH37 DUB inh	rRNA inh HTS	rRNA inh HTS OD600	rRNA inh HTS RFP	T cruzi inh	Beta cell apopt	A1 inh	FGF22 binding
Cc1occc1C(=O)OCC(=O)Nc1ccc(F)cc1	0.63	x	1.0	x	x	x	2	-1	-2.1	x
CCc1ccc2c(c1)C1(NN=C(c3ccccc3)S1)C(=O)N2 (centres undefined)	0.72	x	-0.3	x	x	x	73*	73	0.5	x
O=C(N/N=C/c1ccc(F)cc1)c1c(O)c2ccccc2[nH]c1=O	x	1.7	x	2	2	-1.6	2	-2	0.6	i
Cc1ccc(C(C)C)c(OCC(=O)c2c(O)c3ccccc3oc2=O)c1	0.66	x	4.2	x	x	x	-18	-9	0.5	x
CC(C)(C)NC(=O)NC(=O)CSc1ccc(S(=O)(=O)N2CCOCC2)cn1	0.67	1.7	0.4	10	14	1.9	x	-1	-0.5	i
Cc1nn(-c2ccccc2)c2c1C(O)n1c(nc3ccccc31)S2 (centres undefined)	0.64	x	2.8	x	x	x	-8	5	0.3	x
CC1(C(=O)O)CCC(C(=O)Nc2ccc(OC(F)(F)Cl)cc2)C1(C)C (centres undefined)	0.68	-0.1	0.3	-6	4	-3.7	-7	-5	-0.2	i
COc1cc2c(C(=O)N3CCN(C)CC3)c(C)oc2cc1Br	0.71	x	2.8	x	x	x	-11	0	0.4	x
Cc1nc(SCC(=O)NCc2ccc(F)cc2)c2c(=O)n(C)c(=O)n(C)c2n1	0.67	-0.8	0.9	7	8	-0.5	-4	5	0.5	i
O=C(NCCc1ccc(F)cc1)c1cc2ccccc2oc1=O	0.71	-1.7	1.0	18	17	2.3	-1	2	-0.4	i
CCCCn1c(N)c(N(CCOC)C(=O)c2ccc(Br)o2)c(=O)[nH]c1=O	0.66	-11	-4.9	7	19	-1.6	-9	-1	1.1	i
CCOC(=O)C1=C(COC(=O)/C=C/c2ccc([N+](=O)[O-])cc2)NC(=O)NC1C (centres undefined)	0.68	-0.3	2.5	-11	-4	-3.5	x	-6	-1.2	i
O=C(CCC(=O)N1CCc2ccccc21)Nc1ccccc1	0.68	x	1.5	x	x	x	-10	-1	-0.3	x
O=C(Oc1ccc([N+](=O)[O-])cc1)c1ccc2ccccc2n1	0.67	-0.3	4.1	1	1	-1.2	-28	-7	0.7	i
Cc1cc2ncn(S(=O)(=O)N3CCCCC3)c2cc1C	0.7	x	2.4	x	x	x	4	x	0.3	x
Nc1ccccc1C#Cc1ccc([N+](=O)[O-])cc1	0.68	-2.4	3.4	11	6	-2.5	5	0	-2.4	i
O=C(N/N=C/c1ccoc1)c1ccc(Br)cc1	x	-1.2	x	8	7	-1.5	-7	-8	0.6	i
O=C(NC1CCCc2ccccc21)C1CCN(S(=O)(=O)c2cccc3nsnc23)CC1 (centres undefined)	0.66	x	-1.0	x	x	x	-1	x	-0.1	x
COc1cccc(C2=CC(=O)CC(C)(C)C2)n1	0.69	-2.5	7.9	6	13	-2.8	-6	-13	0.8	i
O=C1CCC(C(=O)N(Cc2ccco2)C2(C(=O)NC3CCCC3)CCCCC2)N1 (centres undefined)	0.71	x	3.6	x	x	x	-9	-5	0.1	x
COCCNC(=O)c1ccc(C)c(S(=O)(=O)Nc2ccc(C)cc2)c1	0.72	2.2	4.3	12	5	-10.0	-6	-4	-1.4	i
Cc1ccc(-c2nc(-c3ccncc3)no2)c(C)c1	0.69	-2.2	3.4	14	-8	-1.7	-10	-7	-2.9	i
Cn1cnc2cc(NC(=O)COc3ccccc3)ccc21	0.59	-3.9	0.2	7	5	-0.6	-6	6	-0.7	i
COc1ccc(NC(=O)C2CCCN(C(=O)Nc3ccc(F)cc3)C2)cc1 (centres undefined)	x	0.2	x	1	1	2.9	-2	3	-0.5	i
COc1cccc(-c2sc3ccc(OC)cc3c2C#CCCO)c1	x	4.5	x	-18	-30	-17	x	-6	-1.8	i
COc1ccc(-c2[nH]ncc2CN2CCN(c3ccc(F)cc3)CC2)cc1	0.65	6.1	6.7	x	x	x	x	-6	0.9	i
COc1cccc(OCC(=O)O)c1	0.72	-13	-0.3	-4	-5	-1.4	-3	-4	-0.8	i
CC(=O)N1N=C(c2cccc(Cl)c2)OC1c1ccc(C(C)C)cc1 (centres undefined)	0.72	x	0.7	x	x	x	-3	2	-0.9	x
CC(=O)c1ccc(N2Cc3ccccc3C2=NC(=O)c2cccs2)cc1	0.65	x	-29	x	x	x	-3	3	-1.2	x
Cc1cc2c(NCc3ccccc3)ncnc2s1	0.64	-1.6	0.4	5	7	-1.1	-21	x	-0.4	i
CC1CN(S(=O)(=O)c2cccc(C(=O)N(C)C3CCN(C)CC3)c2)CC(C)O1 (centres undefined)	0.7	1.0	2.4	x	x	x	x	-1	-0.3	i
COc1cccc(C(=O)N2c3cc(C)ccc3OCC2C(C)(C)C)c1 (centres undefined)	0.69	-2.9	5.9	15	17	-0.8	16	5	-0.7	i
Cc1ccc(S(=O)(=O)N2CCN(C(=O)C(C)Cn3cncn3)CC2)cc1C (centres undefined)	0.66	0.3	3.8	5	16	2.2	-4	1	0.7	i
CC(=O)c1ccc(N2CCN(S(=O)(=O)c3ccc4c(c3)CC(C)N4C(=O)C3CC3)CC2)cc1 (centres undefined)	0.72	-0.6	-1.6	-3	1	-5.5	-14	x	-1.7	i
Cc1cccc(C)c1OCC(O)CNC(C)(C)C (centres undefined)	0.71	x	0.5	x	x	x	3	-11	-0.1	x
Cc1ccc2nc(SCC(=O)Nc3ncccn3)[nH]c2c1	0.7	6.4	2.4	14	9	7.4	-1	-6	0.4	i
CCCN(CCC)CCNC(=O)c1cc2c(=O)n(CC)c3ccccc3c2s1	0.66	-2.6	-277	8	12	5.2	23	7	0.4	i
COc1cc(/C=N/NC(=O)NC23CC4CC(CC(C4)C2)C3)ccc1O	x	14	x	-10	-9	0.1	-7	9	-0.3	i
CC(C)c1nc2c(c(=O)c3ccccc3n2C)c(=O)n1CCc1ccccc1	x	-1.3	x	-18	-20	10	13	10	-0.8	i
COc1ccc(C)cc1N(CC(N)=O)S(=O)(=O)c1ccc(C)cc1	0.67	x	2.1	x	x	x	4	x	0.1	x
CCOC(=O)C1C(C(=O)OC)=C(c2ccc(F)cc2)c2ccccc2N1S(=O)(=O)C(F)(F)F (centres undefined)	0.72	12	5.1	-35	-57	-8.5	x	x	x	i
COc1ccc(N2CCN(C(=O)CCNS(=O)(=O)c3ccc(Br)s3)CC2)cc1	0.77	x	1.2	x	x	x	20	-11	0.1	x
O=C(NCc1ccccc1)C(=O)Nc1cccc(C(=O)O)c1	0.65	-0.7	0.0	2	7	-1.2	-14	2	-7.8	i
COc1ccc2[nH]c3ccccc3c2c1	0.71	x	-4.2	x	x	x	9	-6	-0.1	x
O=C(O)CCc1ccc(-c2ccccc2)n1NC(=O)c1sc2ccccc2c1Cl	0.66	x	3.7	x	x	x	-18	4	0.4	x
C=CCN1C(=O)C2C(C(=O)NC3CCCC3)C3(C)C=CC2(O3)C1C(=O)NC1CCCC1 (centres undefined)	0.62	-7.5	3.1	5	12	-2.1	-6	-9	0.4	i
CCSc1nnc(N2C(=O)C(O)=C(C(=O)c3ccco3)C2c2cccc(OC)c2)s1 (centres undefined)	x	-1.3	x	5	-14	4.0	0	-6	u	i
CCOC(=O)c1cccc(NC(=O)COc2nsnc2N2CCOCC2)c1	0.68	1.8	1.5	-4	-10	-0.8	0	-1	-0.5	i
O=C(CSCc1c(F)cccc1Cl)NCc1cccnc1	x	2.6	4.5	-9	-14	10	-25	-4	1.5	i
O=C(Oc1cc(Cl)ccc1Cl)c1ccc(N2CCOCC2)c([N+](=O)[O-])c1	0.71	x	4.0	x	x	x	-7	-2	-0.9	x
CSC(=O)NC(=O)NC(=O)c1ccc([N+](=O)[O-])cc1	0.67	0.0	-0.2	1	12	-2.9	-7	-4	-0.7	i
COc1ccc(-n2c(=O)cc(N3CCN(c4ccccc4)CC3)[nH]c2=O)cc1	0.65	x	1.8	x	x	x	-12	1	-0.1	x
O=C(c1ccc2nsnc2c1)N1CCN(c2ccc([N+](=O)[O-])cc2)CC1	0.69	9.1	7.4	-18	-10	5.4	-12	1	1.7	i
C/C(=N/NC(=O)C1CCCC1)c1ccc(NC(=O)C(F)(F)F)cc1	x	-0.1	x	-16	-9	-2.0	-13	-7	0.1	i
O=C(c1cccc(F)c1)N1CCN(c2ccc([N+](=O)[O-])c(N3CCCCC3)c2)CC1	0.7	x	5.4	x	x	x	13	-2	0.6	x
CCOC(=O)C1(Cc2ccccc2)NC(c2ccccc2F)C2C(=O)N(CC)C(=O)C21 (centres undefined)	0.69	x	3.4	x	x	x	-7	-5	1.5	x
CCCCC(=O)O	0.64	x	-0.8	x	x	x	-4	-3	0.3	x
COC(=O)Cc1cnc(NC(=O)C2C3CCC(C3)C2C(=O)O)s1 (centres undefined)	0.71	x	2.2	x	x	x	-5	-1	-0.4	x
O=C(NCCN1CCNC1=O)C1CCC(=O)N(CCc2ccc(Cl)cc2)C1 (centres undefined)	0.71	1.9	4.8	3	4	-1.4	-12	x	x	i
Cc1[nH]n(-c2ccc(F)cc2)c(=O)c1C=Nc1ccc(S(=O)(=O)N(C)C)cc1	0.68	-7.2	6.5	14	5	-5.1	5	-3	-1.1	i
O=C(NCCc1ccccc1)c1ccc(NS(=O)(=O)c2ccc3[nH]c(=O)[nH]c3c2)cc1	0.63	-1.9	0.2	3	0	3.3	-4	-4	0.3	i
Cc1ccc(CNC(=O)CN2C(=O)NC(C)(c3ccccc3Cl)C2=O)cc1 (centres undefined)	0.69	-0.2	4.3	0	2	-3.0	-6	-3	-1.0	i

Single records, as listed above. Order of screens: E coli growth, MLL AF4-AF9 inh, UCH37 DUB inh, rRNA inh HTS, rRNA inh HTS OD600, rRNA inh HTS RFP, T cruzi inh, Beta cell apopt, A1 inh, FGF22 binding
Shown for Cc1ccc(CNC(=O)CN2C(=O)NC(C)(c3ccccc3Cl)C2=O)cc1 (centres undefined) → 0.69, -0.2, 4.3, 0, 2, -3.0, -6, -3, -1.0, i
Shown for CCOC(=O)C1(Cc2ccccc2)NC(c2ccccc2F)C2C(=O)N(CC)C(=O)C21 (centres undefined) → 0.69, x, 3.4, x, x, x, -7, -5, 1.5, x

The list is partial; rates above refer to the full screens.
